VACV mCherry inh: vaccinia inhibition (mCherry reporter); Vaccinia virus mCherry reporter infection, fluorescence; about a quarter of the inactives have no number; Potency, µM (titrated, usually from 36.5 µM), inactives show at the highest dose activity change, negative = inhibition, actives largely listed as inhibitors; 310,000 compounds, 0.63% hits; AID 720579; active = well fitted inhibition curve with a large enough effect; inconclusive = small, poorly fitted or top-dose-only effect; inactive = no such curve, though single readings can be large or run the other way; tested in A549 cells; also: nearly all actives have a fitted effect of over 35% in size; inactives centre near -10
VACV Venus inh: inhibitors of vaccinia virus (Venus reporter); 330,000 compounds, 0.46% hits; AID 720580; Potency, µM (highest dose often 36.5 µM), inactives show at the highest dose activity change, negative = inhibition, actives largely listed as inhibitors; Vaccinia virus Venus reporter expression, fluorescence; active means well fitted inhibition curve with a large enough effect; inconclusive means small, poorly fitted or top-dose-only effect; inactive means no such curve, though single readings can be large or run the other way; tested in A549 cells; also: nearly all actives have a fitted effect of over 30% in size; inactives centre near -10
The depositor's hits bear a star; i = inactive; ? = inconclusive; . = no result given; [ ] = another dose, or the depositor's remark. % is scaled to controls: 0 for no effect and ±100 for the full control effect; potency is read from the fitted curve at half-maximal effect.

The line under a structure holds: VACV mCherry inh | VACV Venus inh
> NC(=O)Cn1c(=O)n(-c2ccccc2)c(=O)c2oc3ccccc3c21
  -9.3% | -17.4%
> O=C1C2C3CCC(O3)C2C(=O)N1c1nccs1 (stereo not given)
  -0.2% | -3.0%
> COc1cc(CN2CCC(n3nccc3NC(=O)c3ccc4c(c3)OCO4)CC2)ccc1O
  -19.6% | -17.4%
> CCOC(=O)C1(CCOc2ccccc2)CCN(Cc2ccc3c(c2)OCCO3)CC1
  -20.4% | -27.2%
> CC(/C=N/NC(=S)Nc1cccc(S(=O)(=O)N(C)C)c1)c1ccccc1 (stereo not given)
  -16.9% | -11.3%
> Cn1c(=O)n(C)c2cc([N+](=O)[O-])c(N3CCN(C(=O)c4ccccc4Br)CC3)cc21
  i | -18.2%
> CCc1cccc(NC(=O)CS(=O)Cc2nc(-c3ccc(C)cc3)oc2C)c1 (stereo not given)
  -16.4% | -10.6%
> COC(C(=O)Nc1ccc(S(=O)(=O)N2CCCCC2)cc1)c1ccccc1 (stereo not given)
  -12.2% | -16.9%
> Cc1cccc(OCCCn2c(CCNC(=O)C(C)(C)C)nc3ccccc32)c1
  -9.7% | -13.0%
> CSc1nc2ccccc2nc1N(C)S(=O)(=O)c1ccc(C)cc1
  i | -7.1%
> CC(C)OC(=O)c1cccc(C(=O)Nc2cccc(NC(=O)c3cccc(C(=O)OC(C)C)n3)n2)n1
  i | -10.0%
> Cn1cccc1C(=O)OCC(=O)NNC(=O)c1ccc([N+](=O)[O-])cc1
  -15.4% | -3.0%
> O=C(O)C1C2CCC(C2)C1C(=O)NCCCn1ccnc1 (stereo not given)
  . | -8.8%
> CN(C(=O)CSc1nncn2c1cc1occc12)c1ccccc1
  -6.2% | -0.5%
> COc1cc(Nc2nc3ccccc3c3nnc(C)n23)cc(OC)c1
  -0.2% | -14.1%
> CNC(=O)CSc1nnc(-c2ccc(S(=O)(=O)N3CCCC3)cc2)n1-c1cccc(C)c1C
  ? | -10.4%
> COc1cccc(NS(=O)(=O)c2ccc3[nH]cc(C(=O)N4CCCC4)c(=O)c3c2)c1
  -9.4% | -6.7%
> NC(=O)c1nsc(C(=O)N(Cc2ccco2)C(C(=O)NCc2ccc(F)cc2)c2ccc(O)cc2)c1N (stereo not given)
  -15.2% | -6.1%
> O=C1NC(Cc2ccccc2)c2nc3cc(F)ccc3c(=O)n2-c2cc3ccccc3cc21 (stereo not given)
  i | ?
> CC1=C(C(=O)Nc2ccccn2)C(c2ccc(F)cc2)n2ncnc2N1 (stereo not given)
  -5.9% | -5.6%
> CC(C)(C)C(=O)C1=C(O)C(=O)N(Cc2ccccc2)C1c1ccccc1F (stereo not given)
  -1.2% | -4.1%
> CN(CC(=O)Nc1ccc(Cl)c(Cl)c1)C(=O)C12CC3CC(CC(C3)C1)C2
  i | -12.6%
> Cc1ccc(N2C(=O)NC(=O)/C(=C/C=C/c3ccco3)C2=O)cc1
  -15.7% | -25.3%
> O=C(CSc1nnc(-c2ccccn2)n1Cc1ccccc1)N1CCCC1
  -1.1% | -21.1%
> Oc1ccc(Cl)cc1C1C=C(c2ccc3c(c2)OCO3)NC(c2ccc(Br)cc2)N1 (stereo not given)
  i | -6.9%
> ClCCN(CCCl)c1ccc(/C=C/c2sc3ccccc3[n+]2CCCCI)cc1
  303.8%[activator] | .
> COc1ccc(-c2nc(N=Nc3ccc(O)cc3)n[nH]2)cc1
  -28.9% | -12.8%
> CC(C)(C)OC(=O)CN1C(=O)C(Sc2n[nH]c(-c3ccccc3)n2)CCc2ccccc21 (stereo not given)
  -6.6% | -2.1%
> COCCn1nnnc1C(c1ccccc1Cl)N1CCN(c2ccccc2OC)CC1 (stereo not given)
  -14.9% | -11.6%
> COc1ccccc1NC(=O)c1ccc(NC(=O)C2CC2C)cc1 (stereo not given)
  4.8% | -10.7%

Structural class, those above with a nitro group on carbon
The line under a structure holds: VACV mCherry inh | VACV Venus inh
> Cn1c(=O)n(C)c2cc([N+](=O)[O-])c(N3CCN(C(=O)c4ccccc4Br)CC3)cc21
  i | -18.2%
> Cn1cccc1C(=O)OCC(=O)NNC(=O)c1ccc([N+](=O)[O-])cc1
  -15.4% | -3.0%

Next results:
The line under a structure holds: VACV mCherry inh | VACV Venus inh
> CC(C)C(=O)Nc1cccc(C(=O)Nc2nnc(CC(C)(C)C)s2)c1
  -19.1% | -3.8%
> CCc1nnc2c3ccccc3nc(Nc3ccc(F)c(Cl)c3)n12
  -13.6% | -7.5%
> CC(C)Nc1nnc(SC(C)C(=O)NCc2ccc3c(c2)OCO3)s1 (stereo not given)
  -26.8% | 0.7%
> NC(=O)C1CN(C(=O)c2nn(Cc3ccccc3)c(=O)c3ccccc23)c2ccccc2O1 (stereo not given)
  -12.7% | ?
> O=C1c2cc(Cl)ccc2OC2(CCNCC2)C12CC(c1ccc(Cl)cc1)=NO2 (stereo not given)
  i | 1.0%
> COc1cc(Br)cc(C=Nc2cccc(C(F)(F)F)c2)c1O
  i | -1.8%
> CSc1ccccc1C(=O)N1CCC2(CC1)CC(=O)c1ccccc1O2
  -1.2% | -6.5%
> Cc1nc2ccc(-c3nc4ccccc4[nH]3)cc2[nH]1
  -29.2% | -27.1%
> CCN(CC)c1ccc(/C=N/NC(=O)CNC(=O)c2ccccn2)cc1
  -6.0% | -4.9%
> COC(=O)CNC(=O)CN1C(=O)N(c2cccc(Cl)c2)C(N(O)C(=O)Nc2cccc(Cl)c2)C1(C)C (stereo not given)
  . | -1.7%
> O=C(O)c1cc(N2CCCCC2)nc2ccccc12
  4.8% | 8.7%
> O=C(c1cc([N+](=O)[O-])ccc1N1CCOCC1)N1CCCC1
  i | -7.0%
> CCSc1nnc(NC(=O)C2CCN(C(=O)c3ccco3)CC2)s1
  -3.4% | -14.4%
> CC1(Cc2ccc3ccccc3n2)C(=O)Nc2ccc(OC(F)(F)F)cc21 (stereo not given)
  28.2% | -18.5%
> Cc1cccc(NC2=NCC(=O)N2Cc2ccccc2)c1
  i | -15.7%
> O=C(NCCN1CCOCC1)c1ccccc1OCc1ccccc1
  i | -14.1%
> O=[N+]([O-])c1cccc(-c2ccc3nnc(SCc4cccnc4)n3n2)c1
  -9.6% | -10.4%
> Cc1nn(CC(=O)c2ccccc2Cl)c(C)c1[N+](=O)[O-]
  -4.2% | -9.8%
> CCOc1ccccc1NS(=O)(=O)c1ccc(-c2cnc(C3CC3)o2)cc1
  -30.5%[7.34 µM] | -27.2%[7.34 µM]
> CCN1CCCC1CNC(=O)c1cnn(-c2ncc3c(n2)-c2ccc(OC)cc2CC3)c1C1CC1 (stereo not given)
  i | -3.4%
> CCCCCOC(=O)CSc1nc2c(c(=O)[nH]c(=O)n2C)n1CCc1ccccc1
  . | -13.1%
> CCOC(=O)N1CCC(N(CCN(C)C)C(=S)Nc2cccc(Cl)c2C)CC1
  -13.2% | ?
> CN(C)CCN1CCN(C(c2cc3ccccc3o2)c2nnnn2C(C)(C)C)CC1 (stereo not given)
  -13.1% | -8.1%
> CCc1[nH]nc2c1C1(CCN(C(=O)c3ccccc3)CC1)C(C#N)=C(N)O2
  -12.1% | -5.0%
> CCCCn1c(=O)[nH]c(=O)c2c1nc(-c1ccccc1OC(F)F)n2C
  -24.7% | -9.6%
> COc1cc(OC)nc(NC(=O)CS(=O)(=O)c2ccccc2)n1
  . | -7.4%
> CC(=O)OCC1OC(OC2C[C@]3(C)C(CC(O)C4C([C@](C)(CCC=C(C)C)OC5OC(CO)C(O)C(O)C5O)CC[C@]43C)[C@@]3(C)CCC(O)C(C)(C)C23)C(O[C@@H]2OC(C)C(O)C(O)C2O)C(O)C1O (stereo not given in full)
  -17.4% | 0.0%
> CCOc1ccc2nc(SCc3ccc(CC(=O)O)cc3)c(C#N)cc2c1
  2.3% | -0.2%
> N#CCc1ccc(-c2cccc3nccn23)cc1
  -9.9% | 3.6%
> COc1ccc(CCNC(=O)c2c(O)c3cccc4c3n(c2=O)CC4)cc1OC
  . | -15.0%
> CCOc1ccc(S(=O)(=O)n2cnc3ccccc32)cc1
  i | -1.8%
> CC#CCN1c2ccccc2[C@]23C[C@@H](C(=O)OC)N=C2NC(C(=O)OC)=C(C(=O)OC)[C@H]13
  i | -2.2%
> Cc1sc2ncnc(N3CCC(C(=O)Nc4ccccc4C(C)(C)C)CC3)c2c1C
  i | -12.5%
> Cc1cccc(C)c1Nc1c(-c2ccccc2Cl)nc2cnccn12
  -21.7% | -11.7%
> COc1ccc(OC)c(CC(=O)Nc2ccc3c(c2)c(=O)n(C)n3Cc2cccc(C(F)(F)F)c2)c1
  -26.7% | -25.3%
> Cc1ccc(Nc2c([N+](=O)[O-])ccc3nonc23)c(C)c1
  -13.9% | -1.0%
> O=C(NC1CC1)c1cc(=S)[nH]c2ccccc12
  -13.7% | -1.7%
> O=C(NCc1ccccc1)C1C(=O)N(Cc2ccccc2)C(=O)C1C1(O)CCCC1 (stereo not given)
  -7.9% | -6.4%
> O=C(Nc1ccc(Cl)c(Cl)c1)N(Cc1c[nH]c2ccccc12)C1CCCCC1
  -4.2% | -2.9%
> O=S(=O)(c1ccccc1)N1CCN(c2ncccn2)CC1
  -18.4% | -12.1%
> CCN(CC)CCN1C(=O)C(=O)/C(=C(/O)c2ccc(OC)c(OC)c2)C1c1ccccn1 (stereo not given)
  i | -13.2%
> CCCCn1c(N)c(N(CC(C)C)C(=O)c2cccc(-n3cnnn3)c2)c(=O)[nH]c1=O
  -15.9% | -8.1%
> COc1ccccc1-n1cc(CN2CCC3(CCC(CNC(=O)c4ccccc4)O3)CC2)cn1 (stereo not given)
  i | 0.8%
> O=C1[C@H]2[C@@H](c3ccc(F)cc3)N3C(=O)N(c4cccc(Br)c4)C(=O)[C@@]3(Cc3ccc(Cl)cc3)[C@H]2C(=O)N1C1CCCCC1
  -17.2% | -26.9%
> O=C(NCCS(=O)(=O)N1CCCCC1)c1ccccc1
  -8.3% | -12.0%
> COc1ccc(NC2CCCN(C(=O)c3ccccc3N3CCOCC3)C2)cc1OC (stereo not given)
  -7.6% | 5.8%
> CCC1CN(C(=O)Nc2cc(OC)cc(OC)c2)c2ccccc2S1 (stereo not given)
  -16.3% | -14.5%
> CC(Oc1ccc(Cl)cc1Cl)C(=O)Nc1cccc(O)c1 (stereo not given)
  i | -5.6%
> COCCN(C(=O)COC(=O)c1ccccc1Nc1ccccc1)c1c(N)n(Cc2ccccc2)c(=O)[nH]c1=O
  -23.6% | -24.7%
> CC(=O)Oc1ccc(C#C/C=C2\c3ccccc3C(=O)N2c2ccccc2)cc1
  ? | -28.5%
> Cc1cccc(Cn2c(CN3CCC(C(=O)NCc4ccccc4Cl)CC3)cc3ccccc32)c1
  -7.3% | -9.1%
> O=C(NCCC(=O)N1CCN(c2cccc(Cl)c2)CC1)c1ccc(Br)cc1
  -24.6% | ?
> COc1ccc(Cn2cnc3sccc3c2=O)cc1
  i | -10.5%
> CCC(=O)N1CCc2cc(S(=O)(=O)N3CCN(c4ccccc4F)CC3)ccc21
  -1.8% | 0.3%
> CCc1ccccc1N/N=C(/C)c1c(O)cc(C)oc1=O
  -14.9% | -0.4%
> CCOC(=O)C1CCN(C(=O)CCn2c(=O)c3cccn3c3cccnc32)CC1
  -7.1% | -6.0%
> COc1ccc(CCC(=O)N2CCN(S(=O)(=O)c3ccc(OC)c([N+](=O)[O-])c3)CC2)cc1
  -8.2% | -15.3%
> CCc1[nH]c(=S)c(C#N)c2c1CCCC2
  -13.7% | -22.4%
> CC(=O)c1ccc(NC(=O)CN2C(=O)CN(C)C(=O)c3ccccc32)cc1
  -6.7% | -3.0%
> CC(=O)N/C(=C/c1ccccc1)c1ccccc1
  i | -4.9%

Next section.
The line under a structure holds: VACV mCherry inh | VACV Venus inh
> Cc1nc(-c2cccc(S(=O)(=O)N3CC(C)OC(C)C3)c2)cs1 (stereo not given)
  -12.8%[1.46 µM] | -8.3%
> Cc1c(C(=O)Nc2cc(S(=O)(=O)N3CCOCC3)ccc2N2CCN(C)CC2)oc2ccccc12
  i | -12.8%
> CC1CCCN(CCCNS(=O)(=O)c2cc(Br)cc3c2N(C(=O)C2CC2)CC3)C1 (stereo not given)
  -15.2% | -20.1%
> Cc1cccc(NS(=O)(=O)c2cc3c4c(c2)CCN4C(=O)CC3)c1C
  i | -17.0%
> CC(C)C[C@H]1CNC(=O)C(=O)N1C[C@H]1CCCN1C[C@H](Cc1ccc(O)cc1)N1C[C@H](CC(C)C)N(CC2CCCCCC2)C(=O)C1=O
  ? | -26.9%
> C=CCn1c(SCCN2CCCCC2)nc2c1c(=O)[nH]c(=O)n2C
  1.5% | -14.5%
> Oc1cc2ccccc2nc1-c1ccccc1Cl
  -21.3% | -3.2%
> Cc1ccnc(NC(=O)c2cccc(NC(=O)Cc3ccccc3)c2)c1
  -4.9% | 4.3%
> CN(C)c1ccc(-c2nnc(SCC(=O)NCc3ccco3)n2C)cc1
  -11.4% | -13.0%
> Cc1ccc2[nH]c(C(=O)O)c(-c3ccccc3)c2c1
  i | -9.4%
> Cc1cc(NC(=O)CCC(=O)N(CC(=O)NC2CCCC2)c2ccc(C(C)C)cc2)no1
  -9.8% | -5.3%
> C=CCn1c(O)c(C(C)=Nc2ccc(C(=O)OCC)cc2)c(=O)[nH]c1=O
  -15.1%[1.46 µM] | -20.2%
> CCN1C(=O)c2cccc3c(S(=O)(=O)Nc4nc(C)cs4)ccc1c23
  . | -9.4%
> COC(=O)c1ccc(N=C2S/C(=C\c3cc(C)n(-c4cccnc4)c3C)C(=O)N2C)cc1
  . | -18.2%

High-throughput results from PubChem.
